RanGTP-Imp inh – inhibitors of RanGTP-importin-beta interaction, primary screen, biochemical, FRET, CFP-Ran, YFP-importin-beta, homogeneous; cell-free CFP-Ran/YFP-importin-beta FRET ratio; inhibition, % (no concentration beside the values); 300,000 tested, 1.1% active; AID 2216;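 active = most replicates above 15%; inconclusive = exactly half above 15%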;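 also: 0% = DMSO wells and 100% = Ran loaded with GDP instead of GTP; wells of about 40 µL received 100 nL stock; the first replicate is given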
ALR H2O2 inh – human ALR oxidase inhibition via reduced H2O2. P55789. purified ALR, DTT oxidation, H2O2 HRP-luminol luminescence. inhibition, % (no concentration beside the values). 290,000 tested, 3.8% active. AID 485317;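 active = mean and each replicate at 75% or more; inconclusive = only one of the two met; inactive = neither met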;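 also: stock transfer was 7.5 nL into about 7.5 µL; 0% = neutral wells and 100% = wells with inactivated enzyme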
Target sequence (P55789 whole entry, looked up): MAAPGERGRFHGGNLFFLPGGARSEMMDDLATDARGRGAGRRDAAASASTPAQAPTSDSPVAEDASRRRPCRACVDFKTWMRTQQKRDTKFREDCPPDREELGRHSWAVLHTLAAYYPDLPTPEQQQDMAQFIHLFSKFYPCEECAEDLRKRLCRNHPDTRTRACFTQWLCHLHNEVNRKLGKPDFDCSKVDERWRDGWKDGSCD
B2AR ag – activates human beta-2 adrenergic receptor causing internalization. P07550. Am2.2-beta2AR cells, FAP receptor internalization, flow cytometry; reference of the scale not given here. response, % (no concentration beside the values). 340,000 tested, 0.43% active. AID 504454;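 active = response above a set limit, near 3 SD of response in nonfluorescent compounds, cut at about 42% in these data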;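 also: stock transfer was 100 nL into about 11 µL; a reference agonist was the positive control; negative values mostly stem from fluorescent compounds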
Target sequence (P07550 whole entry, looked up): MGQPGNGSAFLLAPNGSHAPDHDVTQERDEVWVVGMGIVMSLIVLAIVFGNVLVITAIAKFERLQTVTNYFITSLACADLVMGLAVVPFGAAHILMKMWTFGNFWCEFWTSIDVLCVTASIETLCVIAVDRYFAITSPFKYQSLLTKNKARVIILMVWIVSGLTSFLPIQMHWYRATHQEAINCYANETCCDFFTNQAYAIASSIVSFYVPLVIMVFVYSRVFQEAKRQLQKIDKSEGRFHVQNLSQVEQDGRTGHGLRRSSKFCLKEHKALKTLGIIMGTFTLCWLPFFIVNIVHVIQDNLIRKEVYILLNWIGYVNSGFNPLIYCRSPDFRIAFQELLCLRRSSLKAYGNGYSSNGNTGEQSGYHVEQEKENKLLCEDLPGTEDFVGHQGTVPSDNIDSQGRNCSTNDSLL
LANA-H2A inh – blocks KSHV LANA binding to histone H2A/H2B; AID 2629; cell-free LANA-H2A/H2B peptide, fluorescence polarization; inhibition, % (test concentration not listed); 320,000 tested, 0.6% active; in the data active = inhibition mostly above about 10%, no sharp cut-off; inactive = mostly below about 6.7%;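 also: stock transfer was 7.5 nL into about 10 µL; 0% = median of vehicle wells and 100% = median of positive control wells; one replicate is shown; the record names a cut of 25% in any replicate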
HNF4A DNA FP – change in binding of human HNF4 alpha to DNA; HNF4a-FITC DNA binding, fluorescence polarization, 1 h; P41235; AID 1224865; activity change, % at 10 µM; 360,000 tested, 0.3% active; in the data active = activity change above about 30%, passing the limit was not always enough;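 also: controls were the assay level and a saturating level of protein; the project sought stronger binding though the title names inhibitors; some compounds called inactive have numbers as strong as hits; positive values seem to mean higher polarization but the record does not say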
Target sequence (P41235 whole entry, looked up): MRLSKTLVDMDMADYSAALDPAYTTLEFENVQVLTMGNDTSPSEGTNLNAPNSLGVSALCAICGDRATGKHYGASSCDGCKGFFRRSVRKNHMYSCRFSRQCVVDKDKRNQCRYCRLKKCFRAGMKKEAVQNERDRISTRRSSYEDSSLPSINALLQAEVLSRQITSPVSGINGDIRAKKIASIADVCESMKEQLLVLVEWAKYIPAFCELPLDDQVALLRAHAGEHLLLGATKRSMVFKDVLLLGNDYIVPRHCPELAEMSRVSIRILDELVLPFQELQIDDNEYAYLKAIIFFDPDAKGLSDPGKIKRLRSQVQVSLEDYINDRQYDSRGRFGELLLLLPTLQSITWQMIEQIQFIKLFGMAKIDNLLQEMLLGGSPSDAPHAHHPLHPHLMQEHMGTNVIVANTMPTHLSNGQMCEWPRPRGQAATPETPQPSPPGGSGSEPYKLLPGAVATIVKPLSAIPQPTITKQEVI
Calb FLC – affects C. albicans growth with fluconazole | C. albicans CaCi-2 (fluconazole-resistant clinical isolate) + fluconazole, Alamar Blue growth, 48 h | growth inhibition, % (concentration not given with the values) | 300,000 tested, 0.57% active | AID 1979;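 active = most replicates above 75%; inconclusive = exactly half above 75%; inactive = most below 75%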;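 also: all wells also contain fluconazole at 8 µg/ml as a sub-toxic cotreatment; 0% = median of DMSO wells and 100% = median of geldanamycin control wells; wells of about 8 µL received 7.5 nL stock; the first replicate is given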
Vif TR-FRET – inhibitors of Vif binding to APOBEC3G peptide, primary screen, biochemical, TR-FRET, GST-Vif 1-94, biotin-A3G peptide, dose response retest (AID 1117319); TR-FRET GST-Vif / biotin-A3G peptide binding; higher % means a stronger effect; test concentration not given here; strong numbers were not always called active; inhibition, %, or IC50 in µM where a hit was titrated; 260,000 tested, 0.57% active;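 active = above the screen mean plus three standard deviations and confirmed in dose response; inconclusive = results disagree or hit not tested in dose response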;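 also: Vif residues 1-94 fused to GST binding biotinylated APOBEC3G peptide 110-148; 0% = full assay without inhibitor and 100% = GST in place of GST-Vif; retest series ran down from 100 µM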
An asterisk follows results filed as active; u = inconclusive; x = not tested or not shown.

SMILES	RanGTP-Imp inh	ALR H2O2 inh	B2AR ag	LANA-H2A inh	HNF4A DNA FP	Calb FLC	Vif TR-FRET
O=C(CN1C(=O)CSC1=O)Nc1ccc(F)c(F)c1F	-0.4	3	2	4.2	1.1	0	4%
O=S(=O)(Nc1ccc(-c2cn3c(n2)SCC3)cc1)c1cccs1	7.1	0	-17	-3.1	1.3	-19	x
Cc1ccc(C)c(NS(=O)(=O)c2cc(C(=O)NCc3ccncc3)ccc2C)c1	-1.8	2	0	-5.0	2.9	-1	x
COCCNC(=O)/C(C#N)=C1\N=C(N)c2ccccc21	-0.2	-3	6	-0.7	-1.0	-1	-3%
CN1C(=O)CC(n2c(CO)nc3ccccc32)C1=O (stereo not given)	-1.0	0	-8	1.5	-3.7	-1	11%
CCOc1ccc(Br)cc1S(=O)(=O)Nc1cccc(S(=O)(=O)N(C)C)c1	0.2	-8	4	0.3	-1.0	2	-2%
CSCCC(NC(=O)c1ccccc1)C(=O)OCC(=O)N(C)CCC#N (stereo not given)	-2.9	9	2	0.5	-6.3	12	1%
Cc1nn(C)c(Oc2ccccc2)c1CCNC(=O)C(C)(C)C	0.2	1	-3	3.8	-2.4	5	-2%
Cc1nn(C)cc1[C@@H]1C[C@H]2CN(Cc3cccc(Cl)c3)C(=O)[C@]23CCCN13	-4.1	-12	1	-4.2	5.9	-6	4%
O=S(=O)(c1ccc(Br)cc1)c1nc(-c2ccccc2)oc1NCCN1CCOCC1	3.2	9	-8	5.9	-1.6	-2	-7%
CCCCc1ncc(CN2CCC(n3nccc3NC(=O)c3ccccc3OC)CC2)[nH]1	1.4	1	1	1.8	0.3	4	x
CCn1nc(C(=O)NNC(=O)c2ccccc2)c2ccccc2c1=O	x	x	-6	-2.4	-3.7	x	x
Cc1ccc(-n2nnnc2SCC(=O)NCCC2=CCCCC2)c(C)c1	u	-15	-2	0.9	3.2	12	-3%
Cc1ccc(CNC(=O)CS(=O)Cc2nc(-c3ccccc3C)oc2C)cc1 (stereo not given)	-0.9	26	3	-2.8	-0.4	0	-1%
O=C(Nc1nnc(Cc2ccc(Cl)cc2)s1)c1cccs1	u	-7	-14	-5.4	1.2	-7	1%
COC(=O)/C(C#N)=C/c1c(N2CCN(C)CC2)nc2ccccn2c1=O	107*	0	2	0.9	-0.6	14	-1%
COCC(=O)Nc1ccccc1C(=O)Nc1ccc(OC)cc1	2.4	-9	4	-0.3	-2.5	-2	-1%
Cc1ccnc(N2C(=O)OC(C)(C)C2(C)O)c1 (stereo not given)	-0.3	-9	11	1.9	-2.7	2	0%
CC(=O)c1ccc(OCC(=O)Nc2ccccc2C(=O)NC2CC2)cc1	-0.3	1	0	-1.1	2.5	-3	-3%
Cc1ccc2occ(/C=C/C(=O)c3ccccc3O)c(=O)c2c1	7.7	-4	10	0.4	0.7	19	-2%
CCn1ncc(NC(=O)Nc2cccc(C(F)(F)F)c2)c1C(N)=O	x	-3	6	6.4	-1.4	-3	6%
O=C(COC(=O)Cc1c[nH]c2ccccc12)NC1CCS(=O)(=O)C1 (stereo not given)	2.5	-2	-1	-2.5	-10.0	8	-9%
CCC(CC)c1nn2c(N)c(/C=C3\C(C)=Nc4ccccc43)c(=O)nc2s1	1.9	10	7	-4.5	0.2	41	-4%
O=C(COC(=O)c1cc(S(=O)(=O)N2CCCCC2)ccc1Cl)NCc1ccco1	-1.1	4	-3	-5.0	-1.9	-9	18%
O=C(ONC(=O)C1CCCCC1C(=O)NOC(=O)c1ccccc1)c1ccccc1 (stereo not given)	x	x	-3	x	2.0	x	6%
COC(=O)c1ccc2nc(C3CCCCC3)c3c(c2c1)CCC3	2.2	0	-2	-1.6	2.6	-3	x
CC1CCN(C(=O)CSc2nnc(-c3cccs3)o2)CC1	4.9	x	-16	-1.2	0.9	0	x
C=CCn1c(N2C(=O)CC(Cc3ccccc3)C2=O)nc2ccccc21 (stereo not given)	-1.8	-11	19	6.5	1.9	26	1%
O=[N+]([O-])c1ccc(NC(=S)N2CCN(c3ccccc3)CC2)cc1	-2.3	-26	-8	-3.5	-1.4	24	x
Clc1ccc(C(c2ccccc2)N2CCNCC2)cc1 (stereo not given)	1.3	-3	20	-6.0	0.3	21	-1%
O=C(Nc1nccs1)c1cccc(NC(=O)C(F)(F)F)c1	3.9	-8	0	3.3	0.2	-2	x
O=C(/C=C/c1ccco1)NCCCN1CCN(CCCNC(=O)/C=C/c2ccco2)CC1	-1.1	-20	-3	-1.2	2.4	0	-7%
COC(=O)c1ccc(C(=O)N2CCCC(N3CCN(c4ccccc4)CC3)C2)nc1 (stereo not given)	4.1	17	0	6.8	2.2	3	-1%
COc1ccc(N(CC(=O)N2CCOCC2)S(C)(=O)=O)cc1OC	0.1	-5	-2	3.2	1.5	-3	x
CCC(=O)Nc1c(C(=O)N2CCCCCC2)cnn1-c1ccc(C)c(C)c1	-4.7	-8	-6	2.3	-4.2	-6	2%
Cc1ccc(O)c(C(=O)c2cc(C#N)c(=O)n(CC3CCCO3)c2)c1 (stereo not given)	6.5	-15	-3	-7.3	2.8	-1	-5%

Next section, overlapping the part above by two compounds.
SMILES	RanGTP-Imp inh	ALR H2O2 inh	B2AR ag	LANA-H2A inh	HNF4A DNA FP	Calb FLC	Vif TR-FRET
CCC(=O)Nc1c(C(=O)N2CCCCCC2)cnn1-c1ccc(C)c(C)c1	-4.7	-8	-6	2.3	-4.2	-6	2%
Cc1ccc(O)c(C(=O)c2cc(C#N)c(=O)n(CC3CCCO3)c2)c1 (stereo not given)	6.5	-15	-3	-7.3	2.8	-1	-5%
Cc1ccc(/C=C2\SC(=S)N(CCC(=O)Nc3cccnc3)C2=O)cc1	-1.8	-16	6	-0.3	0.5	-1	-7%
O=C(Nc1cccnc1)C1(c2ccc(Cl)cc2)CCCC1	-1.7	-7	-1	1.8	-4.2	2	u
CN(C(=S)NC(=O)C1(C)CC1(Cl)Cl)c1ccccc1 (stereo not given)	-0.8	-3	-2	-0.3	3.1	24	u
O=C(NCc1cccnc1)NC1(C(F)(F)F)Oc2ccc(Cl)cc2O1 (stereo not given)	-1.0	u	3	-0.2	3.4	-9	20%
CCc1cc(=O)[nH]c(SCC(=O)N2CCOCC2)n1	-2.4	0	4	-1.2	-0.8	1	-6%
Cc1ccnc(SCc2cn3c(C)cccc3n2)n1	-0.9	-13	-6	-0.1	4.4	7	-5%
CN(CCOc1ccccc1)C(=O)CCc1nc2sc3c(c2c(=O)[nH]1)CCCC3	1.6	-7	-1	-3.9	-1.2	11	x
CSc1nc(C)c(Cl)c(C)c1C#N	7.2	-7	8	2.0	-2.0	0	2%
O=C(Cc1ccc(Br)cc1)NCCN1CCOCC1	-1.5	-5	-3	2.7	2.7	7	x
COc1cccc(-c2nc(-c3ccccc3)no2)c1	-0.4	-4	1	-3.1	-3.9	4	-5%
C/C(=N/NS(=O)(=O)c1ccc(C(C)(C)C)cc1)c1ccc2c(c1)OCO2	2.1	-7	-7	-0.7	2.0	-16	x
CC(C)N=C1SCC(C)(/C=N/O)S1 (stereo not given)	1.7	-4	-3	-0.5	0.0	19	6%
COCCNC(=O)c1cccc2c1C(=O)c1ccc(N3CCOCC3)cc1S2(=O)=O	x	-3	0	1.3	16	x	x
Cc1ccc(-n2nc3c(=O)n(C(C)C(=O)NCc4ccco4)nc(C)c3c2C)cc1 (stereo not given)	1.0	4	4	-0.7	0.4	3	-4%
Cc1nc2nc(-c3ccccc3)cn2nc1C	111*	-4	-6	0.3	2.3	-10	68%
O=Cc1cn[nH]c1-c1cccc([N+](=O)[O-])c1	0.7	0	-13	4.0	4.3	10	-1%
COc1ccc(Cl)cc1NC(=O)CN(C)C(=O)CCNC(=O)c1ccccc1OC	x	-1	-2	-1.2	2.1	x	-3%
Cc1ccccc1CC(=O)N1CCN(C(=O)C2CCCO2)CC1 (stereo not given)	4.2	3	3	0.4	3.8	-31	x
O=C(O)c1ccc(Sc2nnc(-c3cccc(Br)c3)o2)c([N+](=O)[O-])c1	4.7	99*	-5	-6.5	-0.4	7	-4%
Cc1cc(Oc2ccc(OCC(N)=O)nn2)nc(Cl)n1	5.8	-6	-2	-4.5	2.0	13	0%
CC(C)n1c(CCC(=O)O)ccc1-c1ccccc1	-3.9	28	4	-0.1	2.4	-2	>100µM*
O=C(NNc1nc2ccccc2s1)C1CC1	-2.6	21	6	6.9	-0.9	-2	-3%
CCc1c(C(=O)N2CCCN(C)CC2)csc1C	x	-5	-5	2.0	0.0	x	5%
COc1ccc(CCNC(=O)C2CCCN(S(=O)(=O)c3ccc(OC)cc3)C2)cc1 (stereo not given)	4.8	x	-1	-2.8	3.9	-11	-4%
COc1ccc(/C(N)=N/OC(=O)Cc2cccs2)cc1	u	-30	12	0.2	-3.3	-1	5%
C[C@@H](CN1C2=NC[C@H](Cc3ccccc3)N2C[C@H]1Cc1ccc(O)cc1)NC(=O)CCC1CCCCC1	-1.1	5	12	-7.4	-0.6	0	-3%
Cc1ccc(-c2nc(S(=O)(=O)c3ccc(C)cc3)c(N3CCOCC3)o2)cc1	-0.8	x	-14	-0.3	3.3	-10	x
CCCOc1ccc(C(F)(F)F)cc1NC(=O)c1cc(C)on1	x	x	12	-1.9	2.6	x	x
Cc1ccc(O)c(NC(=S)NC(=O)c2ccccc2Cl)c1	u	97*	-1	-5.1	0.3	-7	3%
COC(=O)c1ccccc1NC(=O)CCC(=O)N1CCSc2ccccc21	0.7	-3	-3	-5.8	1.9	12	1%
CCc1ccc2c(c1)C(=O)CCC2	x	x	-2	x	-1.2	x	-1%
O=C(Nc1ccccc1Cl)N1C2CCC1CC(O)(c1cccnc1)C2 (stereo not given)	1.9	-8	7	-2.8	5.2	-28	-1%
CC(Oc1ccc2c3c(c(=O)oc2c1)CCC3)C(=O)N[C@@H](Cc1ccccc1)C(=O)O (stereo not given in full)	-1.9	0	-8	-2.6	1.2	1	x
CC(=O)c1ccccc1NC(=O)c1ccc2c(c1)NC(=O)C(C)S2 (stereo not given)	1.6	-2	3	0.7	1.9	-7	-2%
Nc1cc2c(cc1[N+](=O)[O-])-c1ccccc1C2=NO	x	x	-15	x	23	x	3%
CC1(C)CC(=O)c2sc(NS(C)(=O)=O)nc2C1	0.5	-5	-3	-1.0	5.4	-8	1%
Cc1ccc(NC(=O)CCc2nnc3ccc(N4CCC5(CC4)OCCO5)nn23)cc1F	4.4	-6	8	-1.0	-1.0	-1	x
O=C(Cc1cn(-c2ccccc2)nc1-c1ccccc1)N1CCCCC1	0.8	x	-10	-3.8	-0.8	1	x
Cc1cccc(CCNC(=O)CC2C(=O)NCCN2CC2CCCCC2)n1 (stereo not given)	-2.7	-3	-2	-2.5	-0.8	-12	2%
Cc1nn(CC(=O)Nc2c(F)c(F)cc(F)c2F)c(=O)c2cccn12	0.5	4	-6	0.8	5.7	-9	x
Clc1ccc(OCc2nnc(SCc3nnc(-c4ccccc4)o3)o2)c(Cl)c1	0.9	3	-5	0.4	-1.6	-16	-1%
CCOC(=O)c1ccc(Nc2nc(N)c3cc(OC)c(OC)cc3n2)cc1	2.3	0	14	0.0	-1.3	7	-6%
Cc1ccc(C(=O)N/C(=C/c2cccnc2)C(=O)NCc2ccco2)cc1	-1.5	-17	-12	1.1	1.0	-7	81%
Cc1ccc(S(=O)(=O)N(C)C)cc1NC(=O)COC(=O)CCC(=O)c1cccs1	2.5	x	-8	2.8	-0.8	-1	33%
CNc1c([N+](=O)[O-])cnn1-c1ccccc1F	-1.5	-5	-6	0.7	1.5	23	2%

Screening data as filed in PubChem.

Not a hit list; any-hit rate near 6.3%.
